TRPV1 potentiator – potentiators of human vanilloid receptor 1 (TRPV1); Q8NER1; TRPV1-expressing cells, Fluo-8 calcium influx, capsaicin EC20 potentiation; host cell line not named in the record; control for the full effect not named in the record; potentiation, % at 8.33 µM; 0.02% of 320,000 active; active means potentiation above 80%; inconclusive means 30% to 80%; inactive means below 30%; also: 0% is about no effect
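Fluo-8 calcium influx in TRPV1-expressing cells, kinetic read (ex 480/em 520 nm). Compound added and read 3 min for agonist activity, followed by capsaicin at EC20 final and 2 min further read for enhancement.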
D2 PAM – potentiates the human D2 dopamine receptor allosterically | AID 624464 | 0.23% of 360,000 active | DiscoveRx D2 beta-arrestin cells, luminescence, 90 min; 100% = 57 uM dopamine signal | potentiation, % (concentration not given with the values) | P14416; active = potentiation of 50% or more; inconclusive = 30% to 50%; inactive = 30% or less;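 also: compound concentration not given in the record; tested on top of an EC20 dose of dopamine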
Target sequence (P14416 whole entry, looked up): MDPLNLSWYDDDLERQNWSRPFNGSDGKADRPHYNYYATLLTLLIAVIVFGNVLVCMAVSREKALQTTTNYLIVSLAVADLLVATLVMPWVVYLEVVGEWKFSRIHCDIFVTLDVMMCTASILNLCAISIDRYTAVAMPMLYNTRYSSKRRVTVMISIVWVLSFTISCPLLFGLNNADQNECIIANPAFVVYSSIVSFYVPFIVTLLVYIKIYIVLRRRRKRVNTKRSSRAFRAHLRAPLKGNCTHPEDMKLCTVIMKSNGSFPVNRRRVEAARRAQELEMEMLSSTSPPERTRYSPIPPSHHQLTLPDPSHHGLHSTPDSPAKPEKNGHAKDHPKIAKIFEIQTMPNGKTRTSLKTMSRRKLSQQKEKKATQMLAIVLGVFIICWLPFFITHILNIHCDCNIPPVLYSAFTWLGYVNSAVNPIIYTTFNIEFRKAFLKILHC
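D2 cells co-treated with compound plus 50 nM dopamine (EC20) for 90 min at 37 deg C to detect potentiation. Beta-arrestin recruitment was read as enzyme-fragment luminescence after 1 h at ambient temperature. Full response was set by 57 uM dopamine.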
D2 agonist – agonists of human D2 dopamine receptor (beta-arrestin) | P14416 | DiscoveRx PathHunter D2 beta-arrestin, luminescence, 90 min; 100% = 57 uM dopamine signal | activation, % (concentration not given with the values) | 0.084% of 360,000 active; in the data active = activation above about 40%; inconclusive = about 15% to 40%; inactive = below about 15%; also: compound concentration not given in the record; the text of the record calls up to 30% inactive
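Agonist mode: compounds alone added to overnight-plated D2 PathHunter cells for 90 min at 37 C, with 57 uM final dopamine (EC100) defining full response. Beta-arrestin recruitment detected by chemiluminescent reagent, read after 1 h at ambient temperature.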
CtBP-E1A blk – inhibitors of CtBP/E1A interaction. AlphaScreen GST-E1A/His-CtBP binding, 1536-well; stronger effect = lower value; control for the full effect not named in the record. activity change, % (no concentration beside the values). 0.49% of 340,000 active. AID 651724; in the data active means activity change below about -65%; inconclusive means about -30% to -65%; inactive means above about -30%; also: % is scaled to controls: 0 for no effect and ±100 for the full control effect; compound concentration not given in the record
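AlphaScreen with 125 nM GST-E1A and 125 nM His-CtBP (5X stocks) in Tris pH 8.0, 300 mM NaCl, BSA, Tween 20, TCEP. Compounds preincubated 2 h at 37 deg C, then glutathione donor/nickel acceptor beads added for 1 h at 37 deg C in dark.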
Six1-Eya2 blk – blocks human Six1 binding to Eya2; activity change, % (concentration not given with the values); 0.56% of 360,000 active; AlphaScreen GST-Six1/His-Eya2 binding, biochemical; stronger effect = lower value; control for the full effect not named in the record; Q15475+O00167; AID 651725; in the data active = activity change below about -65%; inconclusive = about -30% to -65%; inactive = above about -30%; also: % is scaled to controls: 0 for no effect and ±100 for the full control effect
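Compounds are tested against tagged Six1 and Eya2 proteins bridged by glutathione donor and nickel acceptor beads; after a one-hour incubation at 37 °C without light, AlphaScreen emission is recorded.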
PINK1 expr mod – modulators of PINK1 expression; AID 624263; PINK1 immunofluorescence, high-content cytometry, 24 h; Potency, µM (titrated, usually from 76.6 µM), for inactives: at the highest dose activation (PINK1 increase), usual class: activators; 0.2% of 410,000 active; active = well fitted activation curve with a large enough effect; inconclusive = small, poorly fitted or top-dose-only effect; inactive = flat fitted curve, though single readings scatter; cell line not stated here;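 also: potency is read from the fitted curve at half-maximal effect; % of control where 0% means no effect; nearly all actives have a fitted effect of over 65% in size; a mitochondrial uncoupler was the plate control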
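Measures PINK1 amount and localization on or inside mitochondria by immunofluorescence. Stable cells get compounds at 5 concentrations for 24 hours before fixation and staining; CCCP controls included.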
Sfp inh – blocks B. subtilis Sfp PPTase activity; Biochemical Sfp PPTase activity, qHTS; Q9F4F7; Potency, µM, for the others: max response, negative = inhibition, usual class: inhibitors; 3.5% of 310,000 active; active = well fitted inhibition curve with a large enough effect; inconclusive = small, poorly fitted or top-dose-only effect, or another doubt; inactive = no such curve, though single readings can be large or run the other way;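 also: the enzyme is Sfp with the accession as filed and its product quenches rhodamine fluorescence; potency is read from the fitted curve at half-maximal effect; 0% = enzyme reaction without inhibitor and -100% = no enzyme wells; top concentration of the series not given in the record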
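Reaction rates are the 30-min fluorescence difference (ex 525, em 598 nm) in wells containing 15 nM Sfp, 5 uM rhodamine-CoA and 12.5 uM BHQ-2-YbbR at pH 7.6 with 10 mM MgCl2.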
Active calls of the source: *; u = inconclusive; x = no result given; & = joins results of further samples; [ ] = dose if it differs, or a comment.

Structure | TRPV1 potentiator | D2 PAM | D2 agonist | CtBP-E1A blk | Six1-Eya2 blk | PINK1 expr mod | Sfp inh
NC(N)=NC(N)=Nc1cccc(Cl)c1 | 7 | -11 | -3.7 | 2 | 3 | 0.7% | 20%&-2%&21%
Cc1ccc(S(=O)(=O)Cc2ccc(C(=O)NCCc3ccccc3)o2)cc1 | -27 | -5 | -2.1 | 3 | 2 | 0.1% | 7%
O=C(Nc1ccc(Cl)c(C(F)(F)F)c1)C1Cc2c(-c3ccccc3)ccnc2O1 (stereo not given) | x | -11 | -4.1 | 1 | -6 | u | x
Cc1ccc2c(c1)N(Cc1cccc(C#N)c1)C=NS2(=O)=O | -24 | -11 | -0.3 | -15 | -8 | 0.6% | 23%
Cc1ccc(S(=O)(=O)NCC(=O)OCc2cc(=O)oc3c(C)c(C)ccc23)cc1C | -8 | 17 | -3.3 | -1 | -10 | -0.4% | x
CN(C)CC/C=C1/c2ccccc2Sc2c(O)cc(Cl)cc21 | 12 | -44 | -1.4 | u | u | 2.4% | u
N#Cc1cccc(C(=O)Nc2cc(S(=O)(=O)N3CCOCC3)ccc2N2CCCC2)c1 | x | -7 | -3.3 | 0 | -8 | 4.4% | x
C[C@@H]1CN([C@H](C)CO)C(=O)c2cc(NC(=O)Nc3ccc(C(F)(F)F)cc3)ccc2O[C@H]1CN(C)S(=O)(=O)c1ccccc1 | x | -1 | 0.3 | 0 | -5 | 3.3% | x
CCc1ccc(N(CC(=O)NC(C)(C)C)C(=O)CNC(=O)c2cccs2)cc1 | 13 | -11 | 1.5 | -14 | 3 | 0.4% | 22%
CCN1C=C(Cc2ccc(F)cc2)C2=C(C1)C(c1ccc(F)cc1)C(C#N)=C(N)O2 (stereo not given) | 4 | -15 | -2.3 | -1 | u | 10% | 8%
Cn1c(=O)c2ccccc2n(Cc2ccccc2F)c1=O | -1 | 7 | -2.1 | 1 | 3 | 4.0%[38.3 µM] | 1%
Nn1c(SCC(=O)Nc2ccccc2)nnc(Cc2ccccc2)c1=O | 3 | -6 | -4.7 | -1 | 3 | 1.0% | x
O=C(COC(=O)C1CCN(/C=C/C(=O)C(F)(F)F)CC1)Nc1cccc(F)c1 | 7 | -6 | -3.0 | 9 | 8 | 1.8% | 2%
O=C(N/N=C/c1ccc(OCc2ccccc2)cc1)c1ccco1 | -12 | -2 | 4.7 | 9 | 10 | 6.6% | 11%
CCN(CC(=O)Nc1c(F)cccc1F)C(=O)COc1ccc2c(C)cc(=O)oc2c1 | 1 | -16 | -2.7 | -14 | -1 | -0.7% | 21%
COc1cc(C(CCN2CCCC(C)C2)c2c(OC)cc(OC)c3c(-c4ccccc4)cc(=O)oc23)cc(OC)c1OC (stereo not given) | 28 | -32 | 0.9 | -12 | -14 | 0.0% | -14%
Cc1cc(C)nc(NC(=O)C(c2ccccc2)c2ccccc2)c1 | -4 | -18 | 0.2 | 6 | 8 | 12% | 0%
COc1ccc([C@H]2CC(=O)C=C(c3cccc(C(C)C)c3)C2)cc1 | 4 | -11 | -0.1 | x | 9 | 8.6% | x
NC1=NC[C@H](Cc2ccccc2)N1CC1CCCCC1 | x | -6 | -0.5 | 0 | -2 | 0.9% | x
CN(CCCn1ccc(NC(=O)OCc2ccccc2)nc1=O)CCc1ccccn1 | x | x | -1.9 | -9 | 4 | -0.4% | x

Arranged by molar mass (rising): 8 of the compounds above
Structure | TRPV1 potentiator | D2 PAM | D2 agonist | CtBP-E1A blk | Six1-Eya2 blk | PINK1 expr mod | Sfp inh
NC(N)=NC(N)=Nc1cccc(Cl)c1 | 7 | -11 | -3.7 | 2 | 3 | 0.7% | 20%&-2%&21%
Cc1ccc2c(c1)N(Cc1cccc(C#N)c1)C=NS2(=O)=O | -24 | -11 | -0.3 | -15 | -8 | 0.6% | 23%
COc1ccc([C@H]2CC(=O)C=C(c3cccc(C(C)C)c3)C2)cc1 | 4 | -11 | -0.1 | x | 9 | 8.6% | x
Nn1c(SCC(=O)Nc2ccccc2)nnc(Cc2ccccc2)c1=O | 3 | -6 | -4.7 | -1 | 3 | 1.0% | x
CCc1ccc(N(CC(=O)NC(C)(C)C)C(=O)CNC(=O)c2cccs2)cc1 | 13 | -11 | 1.5 | -14 | 3 | 0.4% | 22%
CCN1C=C(Cc2ccc(F)cc2)C2=C(C1)C(c1ccc(F)cc1)C(C#N)=C(N)O2 (stereo not given) | 4 | -15 | -2.3 | -1 | u | 10% | 8%
O=C(Nc1ccc(Cl)c(C(F)(F)F)c1)C1Cc2c(-c3ccccc3)ccnc2O1 (stereo not given) | x | -11 | -4.1 | 1 | -6 | u | x
CN(CCCn1ccc(NC(=O)OCc2ccccc2)nc1=O)CCc1ccccn1 | x | x | -1.9 | -9 | 4 | -0.4% | x

Later entries:
Structure | TRPV1 potentiator | D2 PAM | D2 agonist | CtBP-E1A blk | Six1-Eya2 blk | PINK1 expr mod | Sfp inh
CCOC(=O)C1=C(C)OC(N)=C(C#N)C1c1cc2c(cc1[N+](=O)[O-])OCO2 (stereo not given) | 5 | -4 | 1.1 | 1 | -2 | -0.7% | 1%
O=C(NCc1ccccn1)C(=O)Nc1nc(-c2ccccc2)cs1 | 1 | -7 | -3.6 | 39 | 21 | 3.0% | 25%
O=C(Cc1cccc2ccccc12)Nc1ccccc1 | x | 1 | 6.6 | -17 | 1 | -1.5% | x
O=[N+]([O-])c1ccc(CSCc2ccc([N+](=O)[O-])cc2)cc1 | x | -5 | -1.4 | 0 | 9 | 11% | x
Cc1cc2c(cc1C)N(Cc1ccccc1)C1=NCCCN12 | -5 | -16 | -3.2 | -21 | 0 | 3.3% | -5%
CCOc1ccc2oc(C(=O)Nc3ccc(C)cn3)c(C)c2c1 | x | -2 | -0.6 | -2 | 0 | 11% | x
COc1ccc(Cc2nnc(NS(=O)(=O)c3ccc(NC(C)=O)cc3)s2)cc1 | 3 | -4 | -3.2 | -11 | -2 | -0.2% | -4%
CCCCc1ccc(NC(=O)CSc2nc(=O)n(CCN(C)C)c3c2CCC3)cc1 | -3 | -11 | -3.3 | 1 | -1 | -2.8% | x
Cc1cccc(Nc2nc(OCC#N)nc(N(C)C)n2)c1 | 1 | -5 | -0.5 | 0 | 0 | -1.9% | 5%
O=C1COc2ccc(C(=O)COC(=O)/C=C/c3ccc(Br)o3)cc2N1 | -9 | -3 | -2.2 | -10 | -18 | 2.7% | x
COc1ccc(CN(C(=O)COc2ccc(C)c(C)c2)C2CCS(=O)(=O)C2)cc1OC (stereo not given) | 5 | -5 | -4.1 | 0 | 10 | 0.5% | 7%
CCCc1cc(=O)[nH]c(SCC(=O)Nc2cc(C)on2)n1 | 2 | -1 | 0.7 | 6 | -1 | -0.5% | 12%
CCOc1ccc(N2C(=O)C3CCCN3C2=S)cc1 (stereo not given) | 0 | -4 | -2.1 | 0 | 4 | 0.4% | x
OC1(Cc2cc(-c3ccccc3)no2)CCN(CCCc2ccccc2)CC1 | 15 | -4 | -1.5 | 5 | 1 | 3.4% | 17%
COc1ccc(-c2ncccc2OC(=O)C23CC4CC(CC(C4)C2)C3)cc1 | -16 | 6 | -3.0 | 2 | 5 | u | -7%
OCCN(Cc1ccccc1)CC(O)COc1ccc(-c2ccccc2)cc1 (stereo not given) | -2 | 2 | 5.1 | 0 | 1 | 1.8% | 50µM*
CN(C)S(=O)(=O)c1cccc(NC(=S)N/N=C/C(=O)c2ccccc2)c1 | 13 | -32 | -3.4 | 7 | -16 | -0.3% | -5%
CCOC(=O)COn1c(=O)c(-c2ccc(F)cc2)[n+]([O-])c2ccccc21 | 4 | -12 | -2.4 | 0 | -9 | 0.4% | 4%
CC1(c2ccccc2)NC(=O)N(CCN2C(=O)c3ccccc3C2=O)C1=O (stereo not given) | u | -8 | -0.4 | 3 | 5 | -1.5% | 18%
CC(=C\c1ccccc1)/C=C1/SC(=S)N(CCC(=O)O)C1=O | -5 | 6 | -3.2 | -2 | 3 | -0.5% | u
Cc1ccc2cccc(SCC(=O)N3CCOCC3)c2n1 | 19 | -6 | -2.8 | -8 | -7 | -2.2% | -15%
O=C(Nc1ccc(N2CCOCC2)c(Cl)c1)c1cc2ccccc2o1 | -2 | -26 | 3.9 | -3 | -3 | -1.4% | -6%
CN(C)CCNc1ncnc2c1ncn2[C@H]1CN(Cc2ccco2)C[C@@H](CO)O1 | x | -14 | -6.0 | 2 | 9 | 0.2% | x
Cn1cccc1CC(=O)NNC(=S)NC(=O)c1ccccc1Br | 3 | -11 | -1.0 | -5 | 0 | 4.6% | 27%
Cn1c(Cc2ccccc2)nnc1SCC(=O)Nc1ccccc1N1CCOCC1 | -2 | -5 | -3.9 | 3 | 6 | 3.0% | 21%
O=C(Nc1ccc(F)cc1F)N1CCCC(c2nc(-c3ccc(F)cc3)no2)C1 (stereo not given) | -1 | -6 | -4.4 | -5 | 7 | -1.5% | 9%
CCCCNC(=O)C[C@@H]1C[C@@]2(C(=O)OC)CCCCC=C2N(Cc2ccccc2)C1=O | x | x | x | 6 | -6 | 1.0% | x
CC(C)CN(C(=O)CSc1nc2ccccc2c(=O)n1C)C1CCS(=O)(=O)C1 (stereo not given) | -12 | 1 | 3.4 | 2 | 3 | 1.1% | x
O=C(Cc1ccc([N+](=O)[O-])cc1)NCc1ccncc1 | 7 | -5 | -3.2 | 2 | 3 | -1.5% | 19%
C=CCn1c(SCC(=O)Nc2ccccc2C)nnc1-c1ccncc1 | -15 | 3 | -1.3 | 1 | -5 | -1.3% | 0%
Cc1ccc(N2CC(C(=O)Nc3nnc(SCC(N)=O)s3)CC2=O)cc1 (stereo not given) | 8 | -10 | -0.6 | 5 | -1 | -0.6% | 0%
CC(CCc1ccccc1)NC(=O)C(=O)NCCc1ccccc1 (stereo not given) | -9 | 8 | 0.3 | 18 | 2 | 13% | 8%
COc1ccccc1N=CC=C1OC(C)(C)C(C)(C)O1 | 5 | -5 | -3.4 | -4 | 6 | 2.8% | 3%
COc1cccc(C(=O)Nc2cc(NC(=O)c3cccs3)ccc2C)c1 | -12 | 0 | 0.5 | 2 | -2 | 1.8% | 6%
CCN1CCN(c2ncc(C(=O)Nc3cc(Cl)c(OC)cc3OC)c3ccccc23)CC1 | -3 | -11 | -2.0 | 2 | -11 | 15% | 13%

High-throughput results (PubChem BioAssay)
